# HIV TAR-Tat: HIV-1 TAR-Tat binding disruption. HIV-1 TAR RNA, Tat peptide displacement FRET; stronger effect = higher value. z-score (no concentration beside the values). 100,000 compounds, 0.6% hits. AID 1259389;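 further: score is relative to mean and SD of negative controls; some compounds called inactive have numbers as strong as hits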
# CDC25B-CDK2 inh: human CDC25B-CDK2/CyclinA binding inhibition | HTRF CDC25B-CDK2/CyclinA binding, anti-His/anti-Flag; stronger effect = higher value | z-score (concentration not given with the values) | 94,000 compounds, 0.72% hits;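 further: score is relative to mean and SD of negative controls; strong numbers were not always called active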
# * = called active by the depositor; nt = not tested or not shown.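 How the source made its calls: active means z-score from 3 up in half or more of its runs; inactive means the rest.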 A portion of the library; count on the stated rates, not on these rows.
> O=C1c2ccccc2-c2cccc3cccc1c23
  HIV TAR-Tat: 1.09
  CDC25B-CDK2 inh: nt
> CC1(C)CC(O)CC(C)(C)N1O
  HIV TAR-Tat: 1.89
  CDC25B-CDK2 inh: nt
> CC(=O)OCC1=C(C(=O)[O-])N2C(=O)[C@@H](NC(=O)CCC[C@@H](N)C(=O)[O-])[C@H]2SC1.[Zn+2]
  HIV TAR-Tat: nt
  CDC25B-CDK2 inh: -3.44
> COc1cc2c(c3oc4cccc(O)c4c(=O)c13)C1C=CO[C@@H]1O2 (some centres undefined)
  HIV TAR-Tat: 2.05
  CDC25B-CDK2 inh: nt
> Fc1ccccc1CNCCc1c[nH]c2ccccc12
  HIV TAR-Tat: 0.3
  CDC25B-CDK2 inh: 2.32
> Clc1ccc(CON=C(Cn2ccnc2)c2ccc(Cl)cc2Cl)c(Cl)c1
  HIV TAR-Tat: -0.5
  CDC25B-CDK2 inh: nt
> CCCCC1(C)N2CC3(C)CN1CC(C)(C2)C3=O (centres undefined)
  HIV TAR-Tat: nt
  CDC25B-CDK2 inh: -0.48
> CCCc1nc(C)cc(N2CCNCC2)n1
  HIV TAR-Tat: -1.6
  CDC25B-CDK2 inh: -1.15
> CC1(C)C(C(=O)N2CCN(c3ccc(Cl)cc3)CC2)C1(C)C
  HIV TAR-Tat: 2.26
  CDC25B-CDK2 inh: -1.37
> CCC1c2cccn2-c2ccccc2CN1C(=O)Nc1ccc(Br)cc1 (centres undefined)
  HIV TAR-Tat: 0.9
  CDC25B-CDK2 inh: nt
> Cc1nn(-c2ccccc2)c2c1C(c1ccc(Br)cc1)SCC(=O)N2 (centres undefined)
  HIV TAR-Tat: nt
  CDC25B-CDK2 inh: -0.07
> CCCN1CCC[C@H](c2cccc(O)c2)C1
  HIV TAR-Tat: nt
  CDC25B-CDK2 inh: -0.82
> CN1CCN(c2ncnc3c2nnn3C)CC1
  HIV TAR-Tat: 3.24
  CDC25B-CDK2 inh: nt
> CCOC(=O)c1c(C)n(Cc2ccco2)c2ccc(OCC)cc12
  HIV TAR-Tat: nt
  CDC25B-CDK2 inh: -1.33
> C#C[C@]1(O)CCC2C3CC[C@H]4C[C@H](O)CCC4(C)C3CCC21C (some centres undefined)
  HIV TAR-Tat: nt
  CDC25B-CDK2 inh: -0.9
> CN(C)P(=O)(OCC(F)(F)F)N(C)C
  HIV TAR-Tat: nt
  CDC25B-CDK2 inh: -1.45
> Nc1ccn2ncc([P+](c3ccccc3)(c3ccccc3)c3ccccc3)c2n1
  HIV TAR-Tat: nt
  CDC25B-CDK2 inh: -4.62
> Cn1cccc1CNCCc1ccccc1F
  HIV TAR-Tat: -2.31
  CDC25B-CDK2 inh: -1.19
> Oc1ccc2c3c1O[C@H]1c4[nH]c5ccccc5c4C[C@@]4(O)C(C2)N(CC2CC2)CC[C@]314
  HIV TAR-Tat: -0.79
  CDC25B-CDK2 inh: nt
> C[C@@H]1O[C@@H](O[C@H]2C[C@@H](O)[C@]3(CO)[C@@H]4C(CC[C@]3(O)C2)[C@@]2(O)CC[C@H](C3COC(=O)C3)[C@@]2(C)C[C@H]4O)[C@H](O)[C@H](O)[C@H]1O (some centres undefined)
  HIV TAR-Tat: nt
  CDC25B-CDK2 inh: -2.83
> CC(C)Cc1nc(N2CCNCC2)c(C#N)c2c1COC(C)(C)C2
  HIV TAR-Tat: -0.44
  CDC25B-CDK2 inh: 0.47
> CC(=O)[C@H]1CC[C@H]2[C@@H]3CC[C@H]4C[C@H](O)CC[C@]4(C)[C@H]3C(=O)C[C@]12C
  HIV TAR-Tat: nt
  CDC25B-CDK2 inh: -1.57
> O=C(CCCC1=NS(=O)(=O)c2ccccc2N1)N1CCC2(CC1)OCCO2
  HIV TAR-Tat: nt
  CDC25B-CDK2 inh: -0.67
> COc1ccc2sc(N(CCN(C)C)C(=O)COc3ccccc3)nc2c1
  HIV TAR-Tat: 2.85
  CDC25B-CDK2 inh: nt
> N#CC(NC(=O)CCl)=C(Cl)Cl
  HIV TAR-Tat: nt
  CDC25B-CDK2 inh: 2.65
> CC1c2cccn2-c2ccccc2CN1C(=O)Nc1ccc(F)c(Cl)c1 (centres undefined)
  HIV TAR-Tat: 0.64
  CDC25B-CDK2 inh: nt

# 3 entries from above, ordered by formula weight, rising.
> O=C(CCCC1=NS(=O)(=O)c2ccccc2N1)N1CCC2(CC1)OCCO2
  HIV TAR-Tat: nt
  CDC25B-CDK2 inh: -0.67
> Cc1nn(-c2ccccc2)c2c1C(c1ccc(Br)cc1)SCC(=O)N2 (centres undefined)
  HIV TAR-Tat: nt
  CDC25B-CDK2 inh: -0.07
> C[C@@H]1O[C@@H](O[C@H]2C[C@@H](O)[C@]3(CO)[C@@H]4C(CC[C@]3(O)C2)[C@@]2(O)CC[C@H](C3COC(=O)C3)[C@@]2(C)C[C@H]4O)[C@H](O)[C@H](O)[C@H]1O (some centres undefined)
  HIV TAR-Tat: nt
  CDC25B-CDK2 inh: -2.83

# Given with values under each structure: entries from further up
# Fields – HIV TAR-Tat | CDC25B-CDK2 inh
CCC1c2cccn2-c2ccccc2CN1C(=O)Nc1ccc(Br)cc1 (centres undefined)
  0.9 | nt
Cc1nn(-c2ccccc2)c2c1C(c1ccc(Br)cc1)SCC(=O)N2 (centres undefined)
  nt | -0.07
CCCN1CCC[C@H](c2cccc(O)c2)C1
  nt | -0.82
CN1CCN(c2ncnc3c2nnn3C)CC1
  3.24 | nt
CCOC(=O)c1c(C)n(Cc2ccco2)c2ccc(OCC)cc12
  nt | -1.33
